Screens as filed in PubChem.
AID504770: growth inhibition of E. coli YBA685, primary screen, V. cholerae RctB inhibitors | E. coli YBA685 rctB-dependent plasmid, OD600 growth, 3 h; stronger effect = lower value | z-score (no concentration beside the values) | 130,000 tested, 0.27% active | AID 504770, 2011;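 active means z-score under -2 on both plates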;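 further: wells of about 30 µL received 100 nL stock; score is relative to mean and SD of the test wells; the first replicate is given; strong numbers were not always called active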
Ba CapD inh: Bacillus anthracis CapD inhibitors, primary screen, biochemical, fluorescence intensity | AID 492967, 2010 | purified CapD enzyme, fluorescence intensity read-out; stronger effect = lower value; some hits fall short of the stated cut | CapD gamma-glutamyltranspeptidase (Bacillus anthracis Ames Ancestor) | 140,000 tested, 0.23% active | z-score (no concentration beside the values);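 active means z-score under -4 in either of two replicates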;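 further: stock transfer was 100 nL into about 40 µL; score is relative to mean and spread of the plate; one replicate is shown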
The depositor's hits bear a star; x = not tested or not shown. Not a hit list, and some 0.37% of all compounds hit somewhere here.

No.	mol	AID504770	Ba CapD inh
1	CCc1cccc(C)c1NC(=O)N(Cc1ccccc1)C(C)C	2	-1
2	CCOC(=O)C1=NNC2C(=O)NC(=O)C12 (centres undefined)	0.8	0.09
3	O=C1CC(Nc2ccc(N3CCOCC3)cc2)C(=O)N1Cc1ccccc1 (centres undefined)	-0.75	-0.54
4	CN1CCN(c2nc(-c3ccccc3)c3cc(Cl)ccc3n2)CC1	x	0.845
5	COc1cc([N+](=O)[O-])ccc1N=Cc1nc(-c2ccc(Br)cc2)oc1O	x	1.19
6	NS(=O)(=O)c1ccc(CCNC(=O)c2ccccc2C(F)(F)F)cc1	0.5	0.225
7	Cc1cc(C(=O)NC(Cc2ccc(O)cc2)C(N)=O)nn1C (centres undefined)	x	0.72
8	Cc1ccc(N(C(=O)c2cccc(F)c2)C2C=CS(=O)(=O)C2)cc1 (centres undefined)	0.2	x
9	COCCNC(=O)c1ccc(-c2cnn(-c3ccc(S(C)(=O)=O)cc3)c2)nc1	x	17.9
10	COc1ccc(N=Cc2ccccc2F)cc1	2.55	-0.74
11	SCCCCOc1ccccc1Br	-0.6	0.415
12	Cc1ccc(C23CC4CC(CC(C(=O)NCc5ccccc5)(C4)C2)C3)cc1	x	0.125
13	N/C(=N\OC(=O)Nc1ccccc1)c1ccno1	1.1	-0.675
14	Nc1nc(N)nc(-c2ccccc2Cl)n1	x	0.245
15	NNC(=O)Cc1nn2c(C3CCCCC3)nnc2s1	2.25	x
16	O=C1NC(c2ccccc2O)Nc2sc3c(c21)CCCC3 (centres undefined)	x	-0.305
17	CSc1ccccc1NC(=O)CN(C)C(=O)c1ccc(S(=O)(=O)N(C)C)cc1	-0.5	x
18	O=C(CN1CC(=O)Oc2ccccc21)Nc1ccc(O)cc1	-0.4	-0.33
19	Nc1nnc(SCCCCOC2CCCCO2)s1 (centres undefined)	x	-0.02
20	Cn1nnnc1SCC(=O)NC1CC1	-0.45	x
21	COc1cccc(N2CCN(S(=O)(=O)c3ccc4c(c3)N(C(C)=O)CCO4)CC2)c1	1.05	-0.185
22	CC1=C(C(=O)OCCOc2ccccc2)C(c2cccnc2)C2=C(CC(c3ccc(Cl)cc3)CC2=O)N1 (centres undefined)	x	57
23	COc1ccc(CN2CC(C(=O)NCCc3ccccc3)CC2=O)cc1 (centres undefined)	-0.4	-0.575
24	c1ccc(C2=NC3(CCCC3)N=C2c2ccccc2)cc1	0.05	1.1
25	CCNc1nc(NCC)nc(C(N)=O)n1	0.15	0.175
26	O=C(CSCc1c[nH]c2ccccc12)Nc1ccc2ccccc2c1	-0.6	0.32
27	CCOC(=O)N1CCN(C(=O)c2ccc(NCc3ccccc3Cl)c(S(=O)(=O)Nc3cccc(OC)c3)c2)CC1	x	1.38
28	O=C1CSC(c2cc3c(cc2[N+](=O)[O-])OCO3)N1c1ccc(Oc2ccccc2)cc1 (centres undefined)	x	0.365
29	O=C(COC(=O)c1ccc(CN2CCCC2=O)cc1)Nc1ccc(F)cc1	0.6	x
30	CN1CCN(S(=O)(=O)c2ccc(C(N)=O)cc2)CC1	-1	-0.035

Given as labelled records: entries from further up
15) NNC(=O)Cc1nn2c(C3CCCCC3)nnc2s1
  AID504770: 2.25	Ba CapD inh: x

30) CN1CCN(S(=O)(=O)c2ccc(C(N)=O)cc2)CC1
  AID504770: -1	Ba CapD inh: -0.035

23) COc1ccc(CN2CC(C(=O)NCCc3ccccc3)CC2=O)cc1 (centres undefined)
  AID504770: -0.4	Ba CapD inh: -0.575

22) CC1=C(C(=O)OCCOc2ccccc2)C(c2cccnc2)C2=C(CC(c3ccc(Cl)cc3)CC2=O)N1 (centres undefined)
  AID504770: x	Ba CapD inh: 57

Additional records
No.	mol	AID504770	Ba CapD inh
31	CCCc1nc(SCC(=O)c2ccc(Cl)cc2)nc(OC(=O)N(C)C)c1C	0.45	-0.34
32	COc1cccc(NC(=O)CN(C)C(=O)C2CC3C=CC2C3)c1 (centres undefined)	1.25	x
33	O=C(NC1CCN(C(=S)NCc2ccco2)CC1)NC12CC3CC(CC(C3)C1)C2	0.7	x
34	CCOc1ccc(NC(=O)Cn2ccc3c(OCC(=O)OC)cccc3c2=O)cc1	-0.55	x
35	COc1cc(OC)c(CN2CCCCC2COC(=O)N2CCN(c3cc(C(F)(F)F)ccn3)CC2)cc1Br (centres undefined)	x	75.7
36	CC(=O)OCCNc1ccc2noc3c2c1C(=O)c1ccccc1-3	0.9	-0.06
37	CCN(CCN(C)C)S(=O)(=O)c1ccc(OC)c(OC)c1	x	-1.04
38	S=c1[nH]cnc2sc(-c3ccccc3)cc12	0.1	-0.72
39	Fc1ccc(N=Cc2ccsc2)cc1F	-1.4	0.21
40	CN1C(=S)SC(N2OC3C(=O)N(c4ccccc4)C(=O)C3C2c2ccccc2)C1(C)C (centres undefined)	x	-0.305
41	c1ccc(-c2nc3ccccc3s2)cc1	-0.1	1.04
42	COc1ccc(C2(NC(=O)c3ccc(Cn4cc(Cl)cn4)o3)CCCCC2)cc1	-0.2	x
43	CCNc1nc(N)nc(Sc2ccc(C(=O)OC)cc2)n1	-0.85	-0.145
44	CCCSc1nnc2c3ccccc3n(Cc3ccccc3)c2n1	-0.75	0.075
45	Clc1ncnc2ccsc12	0.6	x
46	c1ccc(-n2cc(-c3nc4ccccc4[nH]3)c(-c3ccco3)n2)cc1	-0.9	x
47	Cc1ccc(N(C(=O)c2cccs2)C2C=CS(=O)(=O)C2)cc1 (centres undefined)	-0.15	0.08
48	CC(=O)OCC(=O)[C@@]1(O)CCC2C3CCC4=CC(=O)CC[C@]4(C)[C@@]3(F)[C@@H](O)C[C@@]21C (some centres undefined)	0.65	x
49	O=c1c(Oc2ccccc2Br)c(C(F)(F)F)oc2c(CN3CCOCC3)c(O)ccc12	x	-0.585
50	CCOC(=O)C(=O)c1c(O)[nH]c2ccccc12	-0.6	x
51	CCC(=O)c1ccccc1OCCCn1cnc2ccccc2c1=O	-0.15	1.02
52	O=C(Cn1c(C(=O)N2CCN(C(=O)c3ccco3)CC2)cc2sccc21)c1ccccc1	-0.05	x
53	CC1=NN(c2ccc(N)cc2)C(=O)C1	1.25	x
54	CCCN(Cc1nnc(-c2ccccc2Cl)o1)C(=O)c1c(F)cccc1Cl	0.15	x
55	Cc1ccc2[nH]c(C)c(CN(C)C)c(=O)c2c1	0.8	1.5
56	Cc1cc(C)n(-c2ccc(SCc3ccc(Cl)cc3)nn2)n1	2.55	0.32
57	O=C1CCCN1CP(=O)(O)CCc1ccccc1	-0.85	0.13
58	CCCC(=O)c1ccc(N=Cc2ccc(Cl)cc2Cl)cc1	-0.1	-0.965
59	COc1ccc(CCNS(=O)(=O)N(C)C)cc1	-1.3	-0.625
60	Cc1nc(-c2cccc(NS(=O)(=O)c3cccs3)c2)cs1	1.55	x
61	CCOC(=O)c1ccc(-c2ccc(Cl)cc2)s1	1.3	7
62	O=C1CNC(=S)N1CCCn1ccnc1	x	-0.215
63	O=C(O)/C=C/c1ccc(N2C(=O)CC(Cc3ccccc3)C2=O)cc1 (centres undefined)	1.35	-0.14
64	Cn1c(NC(=O)c2cc(F)c(F)cc2Cl)nc2ccccc21	0.4	6.2
65	CCOC(=O)N1CCN(CC(O)COc2cc(C)cc(C)c2)CC1 (centres undefined)	-0.9	1.29
66	N#C/C(=C\c1ccsc1)S(=O)(=O)c1ccc(F)cc1	-0.55	-1.47
67	CCC/C=C/C(=O)Nc1ccc(C)cc1	-0.5	x
68	COc1ccccc1C(=O)Nc1ccc2nc(SCC(=O)Nc3ccccc3F)sc2c1	x	0.04
69	O=[N+]([O-])c1ccccc1SC1CC2C(c3ccccc3F)Nc3ccc4ccccc4c3C2C1Cl (centres undefined)	x	16
70	COc1ccc(-c2c(C)nn3c(N4CCN(c5ccccn5)CC4)cc(C)nc23)cc1OC	1.4	-0.1
71	COC(=O)c1ccc(-n2c(C)cc(C=C3C(=O)N(C)C(=S)N(C)C3=O)c2C)c(C)c1	x	-0.34
72	O=C(O)C1=NN(c2ccccc2)C(=O)C1	-0.7	x
73	COc1ccc(C2C3=C(CC(C)(C)CC3=O)OC3=C2C(=O)CC(C)(C)C3)cc1COc1ccc(F)cc1	x	0.005
74	CCSc1nnc(NC(=O)CN2C(=O)C3CC=CCC3C2=O)s1 (centres undefined)	-0.2	x
75	CCc1ccc(CN(C)C(=O)c2ccc3c(c2)OCO3)cc1	0.05	x
76	CCOC(=O)C1CCN(C2CC(=O)N(c3ccc(NC(C)=O)cc3)C2=O)CC1 (centres undefined)	0.15	x
77	C=CCn1c(O)c(C2=c3ccccc3=NC2=O)sc1=S	-1.05	1.29
78	Cc1ccc2oc(=O)c3cc(C(=O)NCCN4CCN(C)CC4)sc3c2c1	-1.5	25.1
79	Nc1ncc(C2(O)C(=O)Nc3c(Br)cc(F)cc32)s1 (centres undefined)	0	x
80	O=[N+]([O-])c1cc(Cl)c(-n2cccc2)cc1N1CCOCC1	x	-0.77
81	CSc1ncc(C(=O)NCc2ccco2)c(C(F)(F)F)n1	0.2	-0.495
82	Cc1ccc(-n2nc(C(F)(F)F)cc2-c2cccs2)cc1	0.85	0.045
83	Cc1nc(COC(=O)c2c(C)nn(-c3ccccc3)c2C)cs1	-0.45	x
84	Cn1c(=O)c2sccc2n2c(CCCC(=O)NCCc3ccc(Cl)cc3)nnc12	-0.9	-0.37
85	COc1cc(Cl)cc2c1OC1(C=C2)c2ccccc2-c2ccccc2N1C (centres undefined)	x	-0.06
86	CN(C)C(=S)NCc1ccccc1	-0.75	x
87	Cc1onc(-c2c(Cl)cccc2Cl)c1C(=O)NC(C)(C)C	-1.5	0.475
88	O=C(CN(Cc1cccs1)C(=O)c1csnn1)NC1CCCC1	-0.45	x
89	CCc1nn(CC(=O)NCCCN2CCC(Cc3ccccc3)CC2)c(=O)c2cc3sccc3n12	-0.65	-0.095
90	Cc1c(C(=O)Nc2nccs2)nnn1-c1ccccc1Cl	-0.35	x

Continuation.
entry	mol	AID504770	Ba CapD inh
91	CCCc1nc2ccc(NC(=O)c3ccco3)cc2c(=O)n1Cc1ccccc1Cl	0.2	x
92	Cc1ccc(N=Cc2nc(-c3ccc(Br)cc3)oc2O)c([N+](=O)[O-])c1	x	-0.035
93	Cc1ccc(-n2c(-c3ccco3)n[nH]c2=S)cc1C	x	0.875
94	NS(=O)(=O)c1ccc(CNC(=O)OCCn2cccc2)cc1	x	0.215
95	CCCCC(CC)C(=O)Nc1cc(OC)ccc1OC (centres undefined)	0.1	1.86
96	COc1c2ccoc2nc2c(OC)c(OCC(O)C(C)(C)O)ccc12 (centres undefined)	x	-0.005
97	Cc1nc(-c2noc(C(=O)NN)n2)cs1	0.45	0.28
98	COC(=O)C(CC(C)C)N1C(=O)c2cc(Cl)c(Cl)cc2C1=O (centres undefined)	0.65	1.3
99	CCOC(=O)c1sc2nc(CC(=O)OC)nc(Nc3cnc4ccccc4c3)c2c1C	x	6.28
100	Cc1nc2ccccc2nc1OCc1ccc(Br)cc1	-0.9	3.55
101	Cc1cc(C)c(N=c2oc(C(C)(C)C)cs2)cc1C	x	0.525
102	COc1ccc(-c2cc(C(F)(F)F)n3nc(C(=O)N4CCN(C(=O)c5ccco5)CC4)cc3n2)cc1	x	1.94
103	Cc1ccc(C)c(C(C)CN)c1 (centres undefined)	1.55	x
104	C=CCOc1ccc(-c2nn3c(-c4ccoc4C)nnc3s2)cc1	-0.1	x
105	CN(C)c1ccc(/C=N/O)c(N(C)C)c1C#N	0.25	6.24
106	Cc1cc(C)nc(SC2CCCCC2=O)n1 (centres undefined)	1.15	x
107	CC(c1ccco1)N(C(=O)Nc1ccc(Cl)cc1)c1ccccn1 (centres undefined)	-0.35	x
108	Cc1cc(C)cc(C(=O)NN2CCOCC2)c1	0	-0.47
109	Cc1ccc(S(=O)(=O)N2Cc3ccccc3CC2C(=O)NC(C)C)cc1 (centres undefined)	0.15	1.29
110	CCOC(=O)C1=C(C)OC(N)=C(C#N)C1c1ccc(OCc2ccccc2)cc1 (centres undefined)	x	41.8

Full records, quoted from the list. Values in the order: AID504770, Ba CapD inh
C=CCOc1ccc(-c2nn3c(-c4ccoc4C)nnc3s2)cc1 is listed with -0.1, x
CC(c1ccco1)N(C(=O)Nc1ccc(Cl)cc1)c1ccccn1 (centres undefined) is listed with -0.35, x
Cc1cc(C)nc(SC2CCCCC2=O)n1 (centres undefined) is listed with 1.15, x
Cc1ccc(S(=O)(=O)N2Cc3ccccc3CC2C(=O)NC(C)C)cc1 (centres undefined) is listed with 0.15, 1.29
Cc1ccc(C)c(C(C)CN)c1 (centres undefined) is listed with 1.55, x

Other results follow:
entry	mol	AID504770	Ba CapD inh
111	CCN=C1S/C(=C\c2cn(C(C)=O)nc2-c2ccc(F)cc2)C(=O)N1CC	x	-0.645
112	CNC(=S)NCc1sc2ccccc2c1C	-0.6	-0.12
113	O=C(C(c1ccccc1)c1ccccc1)N1CCc2ccccc21	2.15	-0.555
114	Cc1cc(C(F)(F)F)c2c(N)c(C(=O)c3ccc([N+](=O)[O-])cc3)sc2n1	x	-0.93
115	Fc1ccccc1-c1ncc(-c2ccc(Cl)cc2)o1	1.5	32
116	O=C(Nc1cc(Cl)ccc1Cl)C(O)(c1ccccc1)c1ccccc1	0.7	-0.105
117	O=C1c2cccc3c([N+](=O)[O-])ccc(c23)C(=O)N1c1cccc(-c2nc3ccccc3c(=O)o2)c1	x	0.5
118	COC(=O)[C@H](Cc1ccc(O)cc1)NC(=O)c1cccc(Cl)c1	-1.25	0.83
119	CC(C)COc1ccc2c3c(c(=O)oc2c1)CCCC3	0.15	2.93
120	CCOC(=O)C1CCCN(S(=O)(=O)c2cccc3nonc23)C1 (centres undefined)	x	-0.78
121	C=CC1CN2CCC1CC2C(OC(=O)CCC(=O)O)c1ccnc2ccccc12 (centres undefined)	0.4	0.495
122	O=C(Nc1ccc(Oc2ncnc3sc4c(c23)CCC4)cc1)c1ccco1	-0.3	x
123	CCOC(=O)C1=C(C)NC(=O)C(C(N)=O)C1c1ccccc1 (centres undefined)	-0.7	-0.255
